VACV mCherry inh – qHTS for Stage-Specific Inhibitors of Vaccinia Orthopoxvirus: mCherry Reporter Primary qHTS | Vaccinia virus mCherry reporter infection, fluorescence; about a quarter of the inactives have no number | Potency, µM (series often up to 36.5 µM), without a hit: at the highest dose activity change, negative = inhibition, most hits filed as inhibitors | 310,000 tested, 0.63% active | AID 720579, 2013; active = well fitted inhibition curve with a large enough effect; inconclusive = small, poorly fitted or top-dose-only effect; inactive = no such curve, though single readings can be large or run the other way; tested in A549 cells; further: nearly all actives have a fitted effect of over 35% in size; inactives centre near -10
Vaccinia Venus – qHTS for Stage-Specific Inhibitors of Vaccinia Orthopoxvirus: Venus Reporter Primary qHTS | Vaccinia virus Venus reporter expression, fluorescence | Potency, µM (top dose mostly 36.5 µM), inactives show at the top dose activity change, negative = inhibition, actives largely listed as inhibitors | 330,000 tested, 0.46% active; active means well fitted inhibition curve with a large enough effect; inconclusive means small, poorly fitted or top-dose-only effect; inactive means no such curve, though single readings can be large or run the other way; tested in A549 cells; further: nearly all actives have a fitted effect of over 30% in size; inactives centre near -10
Numbers without * were called inactive; i = inactive; ? = inconclusive; · = no result given; & = joins results of further samples; [ ] = remark or other dose. On the % scale 0 is the no-effect control and ±100 the full control effect; potency means the concentration at half of the fitted maximal effect.

Preview:
structure	VACV mCherry inh	Vaccinia Venus
CCN(C(=O)C1CCN(S(=O)(=O)c2cc(Br)cc3c2N(C(C)=O)CC3)CC1)c1cccc(C)c1	-23%	-21%
S=C(Nc1ccc(Cl)cc1)N1CCCC1	-4%	-17%
COC(=O)[C@@]1(Cc2ccc(F)cc2)[C@H]2c3cc(C(=O)N4CCCC4)n(CCF)c3C[C@H]2CN1C(=O)c1ccccc1	-13%	-14%

Main list, from the start:
structure	VACV mCherry inh	Vaccinia Venus
CCN(C(=O)C1CCN(S(=O)(=O)c2cc(Br)cc3c2N(C(C)=O)CC3)CC1)c1cccc(C)c1	-23%	-21%
S=C(Nc1ccc(Cl)cc1)N1CCCC1	-4%	-17%
COC(=O)[C@@]1(Cc2ccc(F)cc2)[C@H]2c3cc(C(=O)N4CCCC4)n(CCF)c3C[C@H]2CN1C(=O)c1ccccc1	-13%	-14%
NC(=O)CSc1nc(-c2ccccc2)c(-c2ccccc2)o1	-30%	-21%
CCCNC(=S)N1CCC(NC(=O)Nc2ccc(C)cc2)CC1	1%	-4%
Cc1ccccc1-c1nn2c(=O)cc(CN3CCN(C(=O)c4ccccc4Br)CC3)nc2s1	-22%	-9%
COc1ccc(-c2cc3cc(-c4cc(OC)c(OC)c(OC)c4)ccc3o2)cc1	-28%	-12%
COc1ccc(NC(=O)CCNS(=O)(=O)c2ccc(C)c(C)c2)cc1OC	-8%	-10%
CC(=O)N1CCc2cc(C(=O)CN3CCCCC3)ccc21	-6%	5%
COc1ccc(N(Cc2ccccc2)S(=O)(=O)c2ccc(C)cc2)cc1	-1%	-3%
COc1ccc2cc(-c3nc4ccccc4n3C)c(=O)oc2c1	-15%	-9%
CN(CC(=O)O)c1ccc(/C=C2\C=Cc3ccccc32)cc1	-17%&-13%	-10%&-10%
CN(C)C=NC1=NN(c2cccc(C(F)(F)F)c2)CC1	-8%[1.46 µM]	-25%
Cc1nnc(SCc2c(Cl)cccc2[N+](=O)[O-])s1	-2%	-19%
O=C(c1ccccc1)c1cccn1CC(=O)N1CCc2ccccc2C1	i	-10%
O=C(COC(=O)C1(c2ccccc2F)CCCC1)NC1CCS(=O)(=O)C1 (stereo not given)	·	-3%
Cc1cccc(-c2nc(N)nc(N)n2)c1	-1%[7.34 µM]	-5%[7.34 µM]
COc1ccc(-c2sc3ccccc3c2-c2cc(OC)ccc2C=O)cc1	11%	3%
COc1ccc(/C=N/NC(=O)CC(=O)NC2CCCCC2)cc1	-2%	-1%
COc1ccc(NS(=O)(=O)c2ccc(S(=O)(=O)N3CCOCC3)cc2)cc1	-15%	-9%
CC(NC(=O)Nc1ccccn1)N1C(=O)C2C3C=CC(C3)C2C1=O (stereo not given)	-27%	-14%
CCCCCSc1nnc2c(n1)OC(C)N(C(C)=O)c1ccccc1-2 (stereo not given)	?	-18%
Cc1c(N)nc([C@H](CC(N)=O)NC[C@H](N)C(N)=O)nc1C(=O)N[C@H](C(=O)N[C@H](C)[C@@H](O)[C@H](C)C(=O)N[C@H](C(=O)NCCc1nc(-c2nc(C(=O)NCCCCN=C(N)N)cs2)cs1)[C@@H](C)O)[C@@H](O[C@@H]1O[C@@H](CO)[C@@H](O)[C@H](O)[C@@H]1O[C@H]1O[C@H](CO)[C@@H](O)[C@H](OC(N)=O)[C@@H]1O)c1cnc[nH]1	i	-27%
COc1cccc(CN2CCC(C(=O)N3CCN(Cc4ccc5c(c4)OCO5)CC3)CC2)c1OC	-4%	-19%
COc1ccc(NS(=O)(=O)c2cc(Br)cc3c2N(C(C)=O)CC3)cc1	-24%	-26%
Cc1ccc(NC(=O)c2nnn(CC(=O)Nc3ccc(C)c(Cl)c3)c2N)c(C)c1	i	-10%
COCCN1C[C@@H](CO)O[C@@H](n2cnc3c(N4CCN(c5ccccc5)CC4)ncnc32)C1	i	0%
COc1ccc(C)cc1NC(=O)CSc1nc2ccccc2nc1N1CCOCC1	-6%	6%
CCCOC(=O)c1ccc(Oc2cn[nH]c2-c2ccc(OC)cc2O)cc1	·	-13%
CC(C)=C(NC(=O)c1ccccc1)C(=O)NCc1ccccc1	i	-8%

Profiles from above. Order of screens: VACV mCherry inh	Vaccinia Venus
COc1ccc(NC(=O)CCNS(=O)(=O)c2ccc(C)c(C)c2)cc1OC reads -8%	-10%
COc1ccc(N(Cc2ccccc2)S(=O)(=O)c2ccc(C)cc2)cc1 reads -1%	-3%

More results:
structure	VACV mCherry inh	Vaccinia Venus
CCC(=O)N1CCc2cc(S(=O)(=O)N3CCN(C(=O)c4ccco4)CC3)ccc21	?	-21%
COC(=O)c1cccc(C23CC4(C2)[C@H](CN(Cc2ccc(-c5ccccc5)cc2)[C@@H]4c2ccccc2)C3c2ccccc2)c1 (stereo not given in full)	-4%	-9%
COc1ccc(/C=N/NC(=O)COc2cc(C)cc(C)c2)cc1COC(C)=O	-14%	-5%
COc1ccc(CN(C)C(=O)C2CC(=O)N(c3ccc4c(c3)OCCO4)C2)cc1 (stereo not given)	2%	-7%
CCOC(=O)NC(Nc1ccc(OC)cc1)(C(F)(F)F)C(F)(F)F	-18%	-16%
Cc1ccc(C)c(NC(=O)CCCN2C(=O)C(c3ccccc3)Oc3cccnc32)c1 (stereo not given)	-6%	-6%
Cc1cc(C)nc(CCNC(=O)c2cc(COc3ccccc3)on2)n1	-11%	-18%
O=C(NCc1ccccn1)Nc1ccc(Br)cc1Cl	-7%	-8%
COc1ccc(C)cc1S(=O)(=O)Nc1cccc(C)c1	i	-6%
O=C(C(c1ccccc1)c1ccccc1)N1CCC(c2nc(-c3ccccc3Cl)no2)CC1	·	-11%
O=C(COc1ccccc1)Nc1nc2cc3c(cc2s1)OCO3	-21%	?
CC(=O)c1ccc(N2CCN(C(=S)Nc3ccc(Oc4ccccc4)cc3)CC2)cc1	?	-24%
CCOc1ccc(C(c2c(O)cc(C)n(CCOC)c2=O)N2CCN(c3ccccc3)CC2)cc1 (stereo not given)	6%[7.34 µM]	-3%[7.34 µM]
CN(C)CCCN(Cc1cc2cc3c(cc2[nH]c1=O)OCO3)C(=S)Nc1cccc(Cl)c1	-18%	-24%
CC(Oc1ccc(Cl)cc1Cl)C(=O)NCCCN1CCOCC1 (stereo not given)	i	-9%
CC1CCCCN1CC(=O)c1ccc2cc[nH]c2c1 (stereo not given)	-23%	4%
COc1nc(Cc2ccc(Cl)cc2)nc2ccccc12	i	-2%
CC1(C(=O)NS(=O)(=O)Cc2cccc(Cl)c2)CCN1C(=O)C1CCCCC1 (stereo not given)	6%	-6%
COc1ccc(Cn2c(=O)[nH]c3cc(C(=O)N4CCN(c5ccc(OC)cc5)CC4)ccc3c2=O)cc1	-10%	-2%
CCn1c(CNC(=O)C23CC4CC(CC(C4)C2)C3)nnc1SCC(=O)Nc1nnc(C)s1	i	-4%
CC(C)CCNC(=O)C(c1ccco1)N(C(=O)Cn1nnc2ccccc21)c1ccc2c(c1)OCO2 (stereo not given)	·	-7%
CCCN1CCN(CCCNC(=O)c2c(C)nn(-c3ccc(F)cc3)c2-n2cccc2)CC1	8%	9%
CCn1cnc2c1c(=O)n(CC(=O)Nc1ccc3c(c1)OC(F)(F)O3)c(=O)n2Cc1ccccc1	·	-22%
OC1C(Br)=Cc2ccccc21 (stereo not given)	16%	-6%
Cc1ccc(CN2CCN(/N=C/c3cccnc3)CC2)c(C)c1	-21%	-11%
Cc1ccc(NC(=O)CCC(=O)NNC(=S)Nc2ccccc2)c(C)c1	-7%	-8%
COc1ccc(Cl)cc1NC(=O)CN1CCC(NC(=O)C2CC2)CC1	0%	-16%
CC(C)Oc1ccc(/C=N/NC(N)=S)cc1	1.1µM*	1.6µM*
CCOc1ccc(-c2nnn(CC(=O)Nc3cccc(OC)c3)n2)cc1OCC	-5%	-18%
Cc1cc(C)n(CCC(=O)N=Nc2c(O)[nH]c3ccc(Br)cc23)n1	?	-5%
O=C(NCc1ccco1)C1CC(c2cccc([N+](=O)[O-])c2)=NO1 (stereo not given)	0%	-16%
O=C1c2ccccc2C(=O)N1Cc1nn2c(-c3ccc(Cl)cc3)nnc2s1	-15%	0%
O=C(CN1CCN(S(=O)(=O)c2ccc(F)cc2)CC1)Nc1ccccc1C(=O)NC1CC1	?	-14%
Cc1ccc(-c2nn3c(-c4ccccc4)nnc3c3ccccc23)cc1	-8%	-10%
CC(=O)Nc1ccc(NCN2C(=O)[C@@H]3[C@H]4CC[C@H](C4)[C@@H]3C2=O)cc1	i	-7%
Cc1cc(C)cc(OCCSc2nc3ccc(NC(=O)COc4ccccc4)cc3s2)c1	-8%	-5%
CC(C)c1ccc(NC2=NCC(=O)N2Cc2cccs2)cc1	-7%	-23%
CC1(C)CC2(CCO1)N1CC3(C)CN2CC(C)(C1)C3O (stereo not given)	-7%	-3%
O=C(Nc1ccc2nc(SCc3ccccc3)sc2c1)c1cccc(F)c1	-17%	-3%
CNC(=O)c1nc(C)n(-c2ccc(Cl)cc2Cl)n1	i	-4%
CCc1nnc(SCC(=O)Nc2ccc(N3CCOCC3)cc2)n1C	-15%	-12%
O=C(Nc1ccccc1)NC1CCS(=O)(=O)C1 (stereo not given)	·	1%
Cc1ccc(-c2nnc3c4ccccc4c(C)nn23)cc1NC(=O)c1ccccc1	-9%	-4%
Cc1cc2c(c(=O)o1)C(C13C=CC(CC1)C3)C(C#N)=C(N)O2 (stereo not given)	·	-27%
CCOC(=O)c1sc(NC(=O)c2cc(-c3cccc(O)c3)on2)c(C(=O)OCC)c1C	i	3%
O=C(NNC(=O)c1ccccc1OCc1ccccc1)c1ccccc1F	i	4%
Cn1nc(C(F)(F)F)c2cc(C(=O)Nc3ccc(F)cc3)sc21	0%	-2%
Cc1nonc1NC(=O)CSc1nc2ccccc2[nH]1	i	0%
CC(C)(C)C1COc2ccccc2N1C(=O)c1cccc(Cl)c1 (stereo not given)	-7%	-3%
O=C1CC(c2cccc(Cl)c2)CC(O)=C1C=Nc1cccc(Cl)c1 (stereo not given)	-7%	-15%
O=C(CSc1cccc[n+]1[O-])c1ccc(Cl)cc1	i	7%
CC(C)(C)C(=O)CSc1nnc(Nc2ccccc2)s1	1%	-1%
O=C(NCCc1nnc2n1CCN(Cc1c(F)cccc1F)CC2)c1ccco1	-2%	-1%
COc1cc2nc(C3CCC3)nc(N3CCN(c4ccccc4OC)CC3)c2cc1OC	?	?
CCCc1cc2c(c(NC(C)=O)n1)c(=O)oc1ccccc12	-19%	-8%
CCc1ccc(NC(=O)CSC2=Nc3ccccc3C3=NC(CC(=O)NC4CCCCC4)C(=O)N23)cc1 (stereo not given)	-17%	-9%
O=C(Cn1c(=O)n(-c2ccccc2)c(=O)c2c3c(sc21)CCCC3)Nc1ccc(F)cc1F	1%	7%
CS(=O)(=O)c1ccc(C(O)C(CO)NC(=O)C(Cl)Cl)cc1 (stereo not given)	-15%	-8%
COC(=O)CNC(c1ccccc1)c1cc(Br)ccc1N (stereo not given)	i	-3%
CCOC(=O)c1c(NC(=O)CN2C(=O)NC3(CCCC3)C2=O)sc(C)c1CC	-11%	?

The results go on:
structure	VACV mCherry inh	Vaccinia Venus
CCc1ccccc1NC(=O)c1ccc2[nH]c(C)c(C)c2c1	-23%	-18%
NC(=O)CC(NC(=O)c1ccccc1)c1ccc(NCCc2ccc(Cl)cc2)c([N+](=O)[O-])c1 (stereo not given)	-19%	-29%
CCCn1c(NC(=O)c2ccc(Br)cc2)nc2ccccc21	-3%	-15%
COc1ccc(NC(=O)C2CCN(S(=O)(=O)c3ccc4[nH]c(=O)ccc4c3)CC2)cc1Cl	-12%	-8%
COc1ccc(CCN2C(=O)c3oc4ccc(F)cc4c(=O)c3C2c2ccc(C(C)(C)C)cc2)cc1 (stereo not given)	-6%	-7%
Cc1ccc(C(=O)NCCCNC(=O)COc2ccccc2Cl)cn1	i	2%
O=C(CCC1N=C2c3ccccc3N=C(SCc3ccccc3F)N2C1=O)NCc1ccc(F)cc1 (stereo not given)	?	-25%
CS(=O)(=O)NC1c2cccc3cccc(c23)C1N1CCOCC1 (stereo not given)	-5%	8%
COc1ccc(CNC(=O)CN2C(=O)NC(C)(c3ccc(Cl)cc3)C2=O)cc1 (stereo not given)	?	-6%
CSc1sc(C(=O)OC(C)C)c2c1C(=O)CC(C)(C)C2	-1%	-15%
COc1ccc(-c2nnn(CC(=O)NCc3ccccc3)n2)cc1OC	-11%	0%

Shown with values under each structure: part of the list above.
Each structure is followed by: VACV mCherry inh	Vaccinia Venus
COc1ccc(NC(=O)C2CCN(S(=O)(=O)c3ccc4[nH]c(=O)ccc4c3)CC2)cc1Cl
 : -12%	-8%
NC(=O)CC(NC(=O)c1ccccc1)c1ccc(NCCc2ccc(Cl)cc2)c([N+](=O)[O-])c1 (stereo not given)
 : -19%	-29%
CCc1ccccc1NC(=O)c1ccc2[nH]c(C)c(C)c2c1
 : -23%	-18%
CS(=O)(=O)NC1c2cccc3cccc(c23)C1N1CCOCC1 (stereo not given)
 : -5%	8%
COc1ccc(CNC(=O)CN2C(=O)NC(C)(c3ccc(Cl)cc3)C2=O)cc1 (stereo not given)
 : ?	-6%
COc1ccc(-c2nnn(CC(=O)NCc3ccccc3)n2)cc1OC
 : -11%	0%
